Screening results: PubChem, National Center for Advancing Translational Sciences (NCATS)
TRPV1 PAM: enhances activation of the human vanilloid receptor TRPV1. potentiation, % at 8.33 µM. Q8NER1. AID 540277. TRPV1-expressing cells, Fluo-8 calcium influx, capsaicin EC20 potentiation; host cell line not named in the record; control for the full effect not named in the record. 0.02% of 320,000 active; active means potentiation above 80%; inconclusive means 30% to 80%; inactive means below 30%; note: 0% is about no effect
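Cells expressing TRPV1 were dye-loaded with Fluo-8 and read kinetically: 10 s baseline, 3 min after compound (agonist portion), then 2 min after EC20 capsaicin (allosteric enhancer portion). Calcium-bound dye fluorescence at 480/520 nm.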
Menin-MLL FL inh: displaces fluorescein MLL peptide from human menin; Fluorescence polarization, fluorescein-MLL peptide displacement from menin; FP activity change, % at 61.4 µM; 290,000 tested, under 10 active; inconclusive = falling polarisation curve, or a change in total fluorescence; inactive = total fluorescence flat and polarisation flat or rising; no compound was filed as active; the % refers to the polarisation; negative = inhibition;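 note: % of control where 0% means no effect; inhibitors lower the polarisation; unlabelled MLL peptide was the positive control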
Sfp inh: blocks B. subtilis Sfp PPTase activity; Q9F4F7; Biochemical Sfp PPTase activity, qHTS; Potency, µM, for the others: max response, negative = inhibition, hits mostly inhibitors; 3.5% of 310,000 active; AID 1490; active = well fitted inhibition curve with a large enough effect; inconclusive = small, poorly fitted or top-dose-only effect, or another doubt; inactive = no such curve, though single readings can be large or run the other way;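 note: the enzyme is Sfp with the accession as filed and its product quenches rhodamine fluorescence; potency is the fitted concentration of half-maximal effect; 0% = enzyme reaction without inhibitor and -100% = no enzyme wells; top concentration of the series not given in the record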
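Compounds were incubated with enzyme (final 15 nM) for 15 min at room temperature before substrate addition started the reaction. Fluorescence at 525 nm excitation, 598 nm emission was recorded immediately and after 30 minutes.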
ClpP mod: qHTS Assay for Activators of ClpP; ATP-dependent Clp protease proteolytic subunit (Bacillus subtilis (strain 168)), P80244; purified B. subtilis ClpP, FRET peptide cleavage, 20 min; Potency, µM (highest dose often 57.5 µM), for inactives: at the highest dose activity change, negative = active; 1.9% of 340,000 active; AID 651965, 2013; active = well fitted falling curve with a large enough effect; inconclusive = small, poorly fitted or top-dose-only effect; inactive = no such curve, though single readings can be large or run the other way; note: potency is the fitted concentration of half-maximal effect; the source files actives as falling curves though it sought activators and does not explain the sign; nearly all actives have a fitted effect of over 65% in size; many hits overshoot -100%
Target sequence (P80244 whole entry, looked up): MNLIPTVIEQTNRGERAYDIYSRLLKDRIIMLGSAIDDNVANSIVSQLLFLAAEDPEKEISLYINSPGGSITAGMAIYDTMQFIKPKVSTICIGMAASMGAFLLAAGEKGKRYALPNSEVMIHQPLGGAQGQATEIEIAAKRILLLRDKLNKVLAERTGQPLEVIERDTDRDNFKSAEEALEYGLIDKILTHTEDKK
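FRET quenching reversal measured ClpP activation: 10 microg/mL B. subtilis ClpP at pH 8 with the FRET-FV decapeptide, read at 430 nm after 320 nm excitation. The 20-min minus 0-min signal was scaled between DMSO/no-enzyme wells and ADEP (5.8 microM final).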
gsp ag: activates gsp, the McCune-Albright syndrome mutation; gsp mutant cells, cAMP HTRF, 30 min; control for the full effect not named in the record; Potency, µM (top dose mostly 76.9 µM), inactives show at the highest dose activation (cAMP increase), most hits filed as activators; 0.13% of 340,000 active; active = well fitted activation curve with a large enough effect; inconclusive = small, poorly fitted or top-dose-only effect, or another doubt; inactive = no such curve, though single readings can be large or run the other way; cell line not stated here;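 note: phosphodiesterase inhibitor Ro 20-1724 added with compounds to block cAMP breakdown; potency is the fitted concentration of half-maximal effect; nearly all actives have a fitted effect of over 60% in size; about a fifth of the inactives were tested at one dose only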
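Cells stably selected in G418 were plated at 2000/well, grown 16-24 hr, then given compounds in DMSO with the PDE inhibitor […] (300 uM solution added) for 30 min at 37C; cAMP was read by HTRF.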
D2 PAM: human D2 receptor positive allosteric modulation. DiscoveRx D2 beta-arrestin cells, luminescence, 90 min; 100% = 57 uM dopamine signal. potentiation, % (concentration not given with the values). AID 624464. 0.23% of 360,000 active. P14416; active = potentiation of 50% or more; inconclusive = 30% to 50%; inactive = 30% or less;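 note: compound concentration not given in the record; tested on top of an EC20 dose of dopamine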
Target sequence (P14416 whole entry, looked up): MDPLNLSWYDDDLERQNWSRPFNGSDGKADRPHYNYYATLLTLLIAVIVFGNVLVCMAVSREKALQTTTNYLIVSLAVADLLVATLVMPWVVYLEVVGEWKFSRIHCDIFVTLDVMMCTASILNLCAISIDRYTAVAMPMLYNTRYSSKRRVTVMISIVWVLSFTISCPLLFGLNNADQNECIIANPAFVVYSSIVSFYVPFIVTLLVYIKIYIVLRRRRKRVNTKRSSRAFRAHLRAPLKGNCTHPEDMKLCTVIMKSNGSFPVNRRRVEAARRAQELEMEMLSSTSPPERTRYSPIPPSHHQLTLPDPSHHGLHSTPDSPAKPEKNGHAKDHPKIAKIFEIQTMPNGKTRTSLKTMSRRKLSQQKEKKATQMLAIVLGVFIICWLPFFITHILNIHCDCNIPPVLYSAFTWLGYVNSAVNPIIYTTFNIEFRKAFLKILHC
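D2 cells co-treated with compound plus 50 nM dopamine (EC20) for 90 min at 37 deg C to detect potentiation. Beta-arrestin recruitment was read as enzyme-fragment luminescence after 1 h at ambient temperature. Full response was set by 57 uM dopamine.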
gsp antag: antagonists of gsp mutant (McCune-Albright syndrome). gsp-mutant cells, cAMP HTRF, 30 min; control for the full effect not named in the record. Potency, µM (titrated, usually from 76.9 µM), inactives show at the top dose activity change, negative = inhibition, hits mostly inhibitors. 0.4% of 340,000 active. AID 624288; active = falling curve of any shape with a large fitted effect; inconclusive = falling curve, mostly with a smaller effect; inactive = flat or rising curve; cell line not stated here;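 note: intracellular cAMP measured with PDE inhibitor Ro 20-1724 present during compound exposure; potency is the fitted concentration of half-maximal effect; % is set by controls: 0 for no effect and ±100 for the full control effect; nearly all actives have a fitted effect of over 65% in size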
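Cells in G418 medium, seeded 16-24 h, 37C; buffer exchange to DPBS + 1 mM CaCl2, 0.5 mM MgCl2, 0.05% BSA; cpds in DMSO + […] (300 uM stock), 30 min 37C; HTRF cAMP detection.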
Numbers without * were called inactive; ? = inconclusive; . = not tested or not shown; & = joins results of further samples; [ ] = remark or other dose.

SMILES	TRPV1 PAM	Menin-MLL FL inh	Sfp inh	ClpP mod	gsp ag	D2 PAM	gsp antag
CC(C(=O)C12CC3CC(CC(C3)C1)C2)N1CCOCC1 (stereo unspecified)	-13	-4.2	6%	-0.8%	12%[15.4 µM]	-4	-7%
Cc1c(Br)c([N+](=O)[O-])nn1CCCC(=O)N1CCN(c2ccccc2)CC1	8	2.9	4%	14µM*	-11%	-27	-10%
CC(C)N(Cc1ccccc1)C(=O)CN1C(=O)COc2ccc(S(=O)(=O)N3CCCCCC3)cc21	-3	1.3	8%	-0.2%&2.1%	-4%	-4	-8%
COc1ccc(S(=O)(=O)N2CCN(C(=S)NC3CCCCC3)CC2)cc1	2	-7.0	-2%	.	2%[15.4 µM]	-2	-1%
CCOC(=O)NC(=O)CSc1cc(C)c2cc(C)cc(C)c2n1	-11	2.1	45µM*	.	?	-2	-2%
CCOc1ccccc1NC(=O)c1ccccc1-c1nc(-c2ccccc2OC)no1	-4	-0.5	-6%	?	3%	-4	-18%
COCCCNc1nc2c(-c3ccc(Cl)cc3)nnn2c2ccccc12	1	-2.3	23%	?	?	-7	17%
COc1ccc2c(c1)C(C)=CC(C)(C)N2S(=O)(=O)c1ccc(C)cc1	2	-14	0%	.	4%[15.4 µM]	-5	26%
COc1ccc(C(=O)OCC(=O)NC2CCCCCCC2)cc1OC	.	.	.	-4.2%	2%	-5	-1%
CCCN1Cc2cccc(C(=O)N3CCN(c4ccc(OC)cc4)CC3)c2C1=O	-1	-1.1	14%	.	0%[15.4 µM]	2	-10%
CC(C)(C)N1C(=O)c2ccc(C(=O)NCc3ccco3)cc2C1=O	.	9.5	-12%	1.6%	-3%	-17	4%
CC1(C)Cc2c(sc(NC(=O)C(=O)NCC3CCCO3)c2C(=O)O)CO1 (stereo unspecified)	-14	.	9%	-4.0%	28%	-9	4%
CN1CCC(N(C)C(=O)COc2ccccc2-c2ccccc2)CC1	27	0.0	-17%	1.0%	6%	-7	11%
COc1ccc2ccc(C(C)(C(C)=O)C(=O)OC(C)C)cc2c1 (stereo unspecified)	-23	.	.	-5.6%	21%	-4	-5%
Cc1cc(S(=O)(=O)Nc2ccc(C(=O)N3CC(C)OC(C)C3)cc2)ccc1F (stereo unspecified)	-5	.	.	-6.2%	4%	0	-8%
COC(=O)Cc1c(C)c2cc(Cl)c(OC(=O)c3ccco3)cc2oc1=O	2	0.8	-9%	213%	4%	-7	-14%
CC(C)C(C(=O)NCc1ccco1)N(CC1CCCO1)C(=O)CNS(=O)(=O)c1ccccc1 (stereo unspecified)	10	-2.4	6%	.	-1%[15.4 µM]	4	.
C=CC(c1ccccc1)C(C(=O)c1ccccc1)N(C)C (stereo unspecified)	8	-0.4	7%	-2.0%	-21%	-14	-4%
COc1cc(OC)c(N(C)S(=O)(=O)c2cccc(C(=O)OCC(=O)N(C)Cc3ccccc3)c2)cc1Cl	.	.	.	-1.1%	14%	2	-12%
COC(=O)c1c(NC(=O)CSc2nc3ccccc3c(=O)n2-c2ccccc2)sc(C)c1C	4	4.7	-8%	.	6%[15.4 µM]	-10	3%
NC(=O)CSc1nc2c(c(=O)n1-c1ccccc1)C1(CCCCC1)Cc1ccccc1-2	-5	5.2	-1%	.	15%[15.4 µM]	-3	-14%
COc1ccc(-c2noc(CN(C(=O)c3cccs3)C(C)C)n2)cc1	-9	-0.9	1%	0.0%	12%	-9	7%
O=C(c1ccc(Cl)cc1)C1CCCN(Cc2cnn(-c3ccccc3)c2)C1 (stereo unspecified)	5	4.4	2%	-1.2%	9%[15.4 µM]	-43	1%
CCCn1c(=N)c(S(=O)(=O)c2ccc(F)cc2)cc2c(=O)n3cccc(C)c3nc21	-10	.	1%	-3.9%	-42%[inhibitor]	-1	2%
CCC(C(=O)OCC(=O)NC1CCS(=O)(=O)C1)c1ccccc1 (stereo unspecified)	3	.	.	1.0%	-6%	-3	18%
O=C(Nc1nc(-c2cccs2)cs1)c1ccco1	-13	-0.4	-7%	-14%	8%	-19	-3%
O=c1cc(-c2ccc(F)cc2)[nH][nH]1	6	4.3	3%	0.8%	-8%[15.4 µM]	-19	8%
COc1ccc(C(=O)Nc2nc3ccccc3[nH]2)cc1	-6	-3.0	25%	.	6%	-6	-16%
CC(O)c1nc2c(c(=O)n(C)c(=O)n2C)n1C (stereo unspecified)	-2	3.9	12%	0.3%	?	-10	12%
Cc1cccc(-c2n[nH]c(=S)n2Cc2ccccc2)c1	4	1.0	79µM*	-14%	0%	23	-13%
COc1ccc(CC(=O)Nc2nc(-c3ccc(OC)c(OC)c3)cs2)cc1OC	3	-2.8	-12%	.	4%[15.4 µM]	-1	28µM*
CC(=O)c1ccc(NC(=O)CCC(=O)OCC(F)(F)C(F)F)cc1	-12	-6.2	17%	0.6%	-2%	-3	6%
Cc1sc2nc(CSC(C)C(=O)NC3(C#N)CCCCC3)[nH]c(=O)c2c1C (stereo unspecified)	-19	.	.	.	2%[15.4 µM]	-28	-3%
Cc1ccc2nc(-c3ccncc3)[nH]c2c1	-3	-5.0	5%	.	-23%	3	1%
Cc1cc(N2CCCC2=O)ccc1S(=O)(=O)NC1CCCCC1	5	-1.0	12%	.	-2%[15.4 µM]	-5	17%
COc1ccc(OC)c(CNC(=O)C2CCCN(S(=O)(=O)N3CCC(C)CC3)C2)c1 (stereo unspecified)	23	.	18%	-0.2%	3%	-6	0%
COc1ccc(CCNC(=O)CN(CCc2ccccc2)S(C)(=O)=O)cc1OC	-4	-1.1	9%	.	-1%[15.4 µM]	-1	0%
O=c1[nH]c(-c2cccnc2)nc2sc(-c3ccccc3)cc12	2	-4.3	4%	?	-5%	-16	2%
CC(=O)N=c1c(C#N)cc2c(=O)n3ccccc3nc2n1CCCOC(C)C	-16	8.2	89µM*	3.7%	42%	0	-6%
O=C(NCc1cc(C(F)(F)F)cc(C(F)(F)F)c1)C1CC(c2ccccc2F)=NO1 (stereo unspecified)	.	.	.	5.4%	-23%	-4	-4%

Sorted by length of the SMILES (lowest first): some entries from above
SMILES	TRPV1 PAM	Menin-MLL FL inh	Sfp inh	ClpP mod	gsp ag	D2 PAM	gsp antag
O=c1cc(-c2ccc(F)cc2)[nH][nH]1	6	4.3	3%	0.8%	-8%[15.4 µM]	-19	8%
O=C(Nc1nc(-c2cccs2)cs1)c1ccco1	-13	-0.4	-7%	-14%	8%	-19	-3%
CC(O)c1nc2c(c(=O)n(C)c(=O)n2C)n1C (stereo unspecified)	-2	3.9	12%	0.3%	?	-10	12%
COc1ccc(C(=O)Nc2nc3ccccc3[nH]2)cc1	-6	-3.0	25%	.	6%	-6	-16%
Cc1cccc(-c2n[nH]c(=S)n2Cc2ccccc2)c1	4	1.0	79µM*	-14%	0%	23	-13%
Cc1cc(N2CCCC2=O)ccc1S(=O)(=O)NC1CCCCC1	5	-1.0	12%	.	-2%[15.4 µM]	-5	17%
O=c1[nH]c(-c2cccnc2)nc2sc(-c3ccccc3)cc12	2	-4.3	4%	?	-5%	-16	2%
CCC(C(=O)OCC(=O)NC1CCS(=O)(=O)C1)c1ccccc1 (stereo unspecified)	3	.	.	1.0%	-6%	-3	18%
CC(=O)c1ccc(NC(=O)CCC(=O)OCC(F)(F)C(F)F)cc1	-12	-6.2	17%	0.6%	-2%	-3	6%
O=C(c1ccc(Cl)cc1)C1CCCN(Cc2cnn(-c3ccccc3)c2)C1 (stereo unspecified)	5	4.4	2%	-1.2%	9%[15.4 µM]	-43	1%
COc1ccc(CC(=O)Nc2nc(-c3ccc(OC)c(OC)c3)cs2)cc1OC	3	-2.8	-12%	.	4%[15.4 µM]	-1	28µM*
Cc1sc2nc(CSC(C)C(=O)NC3(C#N)CCCCC3)[nH]c(=O)c2c1C (stereo unspecified)	-19	.	.	.	2%[15.4 µM]	-28	-3%
COc1ccc(OC)c(CNC(=O)C2CCCN(S(=O)(=O)N3CCC(C)CC3)C2)c1 (stereo unspecified)	23	.	18%	-0.2%	3%	-6	0%
O=C(NCc1cc(C(F)(F)F)cc(C(F)(F)F)c1)C1CC(c2ccccc2F)=NO1 (stereo unspecified)	.	.	.	5.4%	-23%	-4	-4%
CCCn1c(=N)c(S(=O)(=O)c2ccc(F)cc2)cc2c(=O)n3cccc(C)c3nc21	-10	.	1%	-3.9%	-42%[inhibitor]	-1	2%

Later entries:
SMILES	TRPV1 PAM	Menin-MLL FL inh	Sfp inh	ClpP mod	gsp ag	D2 PAM	gsp antag
COc1ccc(C(=O)OCC(=O)NC(=O)NCc2ccccc2)cc1[N+](=O)[O-]	8	.	.	1.6%	?	-14	-18%
C[C@]12CCC(=O)C=C1C=CC1C2CC[C@@]2(C)C1CC[C@@]21CCC(=O)O1 (stereo partly specified)	.	.	.	.	15%	-4	?
C[C@@H]1O[C@@H](O[C@H]2[C@H](O)[C@@H](O)[C@H](Oc3c(-c4ccc(O)cc4)oc4cc(O)cc(O)c4c3=O)O[C@@H]2CO)[C@H](O)[C@H](O)[C@H]1O	.	.	.	-1.9%	-4%	-5	4%
CN(CC(=O)Nc1ccccc1Cl)C(=O)c1cc2c(s1)CCCCC2	.	.	.	-1.9%	44%	-9	-19%
Cc1ccnc(NS(=O)(=O)c2ccc(NS(=O)(=O)c3cccs3)cc2)n1	-6	2.4	-3%	-0.9%	-3%	-14	-5%
Cc1cc(CCC(=O)O)c(C)cc1CCC(=O)O	14	3.8	13%	?	3%	-19	-12%
CCN(CC)c1ccc(Nc2nc(-c3cccnc3)cs2)cc1	12	-19	0%	-1.4%	2%[15.4 µM]	?	-5%
COc1ccc(C2=NN(CCC(=O)NC3CCCCC3C)C(=O)CC2)cc1 (stereo unspecified)	.	.	.	0.1%	-23%	-6	.
CCCCCOc1ccc(C(=O)OC(C)C(=O)NCc2ccco2)cc1 (stereo unspecified)	-9	0.0	-5%	1.4%	0%	-6	-3%
